Calb biofilm kill: clotrimazole potentiators killing C. albicans biofilm, primary screen, 4-compound mixtures. C. albicans biofilm persisters + clotrimazole, fluorescence viability; primary screen in compound mixtures of four per well. inhibition, % at 7.6 µM. hit rate 0.02% among 120,000. AID 1242, 2008;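 active = inhibition above 30.3% in the primary screen of four-compound pools, then above 30% when the compound was retested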;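 also: compounds exposed to preformed 24 h biofilms for 48 h; the number belongs to the whole pool; some results filed as inactive read as strong as hits; inactives centre near 12; 0% = biofilm with clotrimazole alone and 100% = kill control; retested singly at about 60 µM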
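Test system: C. albicans biofilms. Buffer or medium: RPMI/MOPS medium, pH 7.0. Timing: 48 h compound exposure at 37 °C. Technique: Alamar Blue fluorescence. Evaluation: percent inhibition of biofilm viability.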
Numbers without * were called inactive. Not all compounds are listed (hit frequency here may not be typical).

SMILES	Calb biofilm kill
COc1ccccc1/C=N/NC(=O)C(C)Cn1cnc2ccccc21 (centres undefined)	1
CN(C)[C@@H](CO)c1nnc([C@H](CC(=O)O)NC(=O)C2CCNCC2)o1	11
Cc1cccc(CC2CC(=O)N(CCc3ccc4c(c3)OCO4)C2=O)c1 (centres undefined)	26
CCOC(=O)C1(Cc2cccc(F)c2)CCN(C(=O)C2CCOCC2)CC1	7
Nc1c(N(CCO)C(=O)COc2ccc(Cl)cc2)c(=O)[nH]c(=O)n1Cc1ccccc1	19
Cc1cccc(N2C(=O)C(O)=C(C(=O)c3cccs3)C2c2ccc(Cl)cc2)n1 (centres undefined)	25
CN1CCN(C2CC(=O)N(CCc3ccccc3)C2=O)CC1 (centres undefined)	19
O=C(Nc1ccccc1)c1ccc(-c2ccc(Br)cc2)o1	15
O=C(COC(=O)CCc1nc2ccccc2s1)Nc1ccc(Cl)cn1	23
COc1ccc(N2CCN(CC(=O)Nc3ccccc3SC)CC2)cc1	11
COc1cc(CO)ccc1OCC(=O)Nc1ccc(Br)cc1	32
O=C(O)CCc1ccc(-c2ccc(Cl)cc2)n1NC(=O)c1ccc(O)cc1	8
O=C(N/N=C/c1ccc(OC(=O)c2ccccc2)cc1)c1cccc(O)c1	12
Cc1ccc2nc(SCC(=O)Nc3ccc(C(N)=O)cc3)[nH]c2c1	13
COc1ccc(-c2noc(C3CCCN(C(=O)c4ccc(C)cc4)C3)n2)cc1 (centres undefined)	19
Cc1ccc2[nH]c(O)c(N=NC(=O)c3ccc(NS(=O)(=O)c4cccs4)cc3)c2c1	14
Cc1cc(C)n(CCC(=O)N/N=C/c2c(O)ccc3ccccc23)n1	10
O=C(Nc1ccnc(-c2cccnc2)n1)c1cccs1	13
O=C(Nc1cc([N+](=O)[O-])ccc1Cl)c1ccc2c(c1)OCO2	3
COC(=O)c1ccccc1NC(=O)CN1CCN(c2ccccn2)CC1	5
CC(=O)Nc1ccc(OCC(O)Cn2nc(C)c(Br)c2C)cc1 (centres undefined)	20
O=C(CSc1nc2[nH]ncc2c(=O)n1-c1ccccc1)N1CCCCCC1	9
COc1cc(OC)nc(NC(=O)NS(=O)(=O)c2ccc(F)cc2)n1	0
COc1cc(/C=N\NC(=O)CNC(=O)C(c2ccccc2)c2ccccc2)ccc1O	20
Cc1ccc(Nc2nc(C)c3c(n2)CC(C)CC3=O)c(C)c1 (centres undefined)	1

Next part:
SMILES	Calb biofilm kill
COc1ccc(OCc2cccc(C(=O)NN)c2)cc1	9
CN(C)/C=N/c1[nH]ncc1C#N	14
Cc1c(NC(=O)C2CC(c3cccc(Br)c3)=NO2)c(=O)n(-c2ccccc2)n1C (centres undefined)	11
CSc1nc(SCCN(C)C)c2c3c(sc2n1)COC(C)(C)C3	19
CCOc1cc(/C=N\NC(=O)C2C(=O)NCC2c2ccccc2)ccc1OC (centres undefined)	-4
NS(=O)(=O)c1ccc(NC(=S)NC(=O)c2ccc(Br)o2)cc1	62
CCN(CC)C(=S)SCC(=O)Nc1ncc2c(n1)CC(C)(C)CC2=O	25
S=C(Nc1ccccc1)NC1CCN(Cc2ccccc2)CC1	7
CSC1=N/C(=C\c2ccc(C)s2)C(=O)S1	18
CCCCSc1nc2ccccc2[nH]1	8
CCOC(=O)N1C(=O)C2(CCCCC2)N(c2ccccc2Cl)C1=S	12
COc1ccccc1CNC(=O)COC(=O)Cn1cnc2ccccc21	13
CN(Cc1nc(Cc2cccc(F)c2)no1)CC1COCCO1 (centres undefined)	14
O=C(N/N=C1\CCc2ccccc21)c1ccc(O)cc1	9
Cn1c(Cl)c(/C=N/OC(=O)C(C)(C)C)c2ccccc21	0
CC(C)NC(=O)C1CCN(C2CCN(C(=O)C3=CCCC3)CC2)CC1	10
Cc1ccc(NC(=S)N(C)C)cc1C	15
O=C(CN1CCCCCCC1)N/N=C/c1ccc(F)c(F)c1	15
CN(C)c1ccnc(NCc2ccccc2)c1C#N	11
Cc1c(Cl)cccc1NC(=O)CNc1cccc(S(=O)(=O)N(C)C)c1	12
CN(Cc1ccccc1)C(=O)COC(=O)c1cc(NS(=O)(=O)c2cccs2)ccc1O	7
NC(=S)NCc1cccnc1	15
COc1ccc(CNC(=O)C(=O)NCC2OCCN2S(=O)(=O)c2cccs2)cc1 (centres undefined)	18
Cc1cccc2sc(NNC(=O)C3COc4ccccc4O3)nc12 (centres undefined)	8
Cn1c(=O)c2c(ncn2CC(O)CNc2ccc(F)cc2)n(C)c1=O (centres undefined)	8

(further entries)
SMILES	Calb biofilm kill
CCOC(=O)C1CCCN(c2c(NCCc3ccccc3)c(=O)c2=O)C1 (centres undefined)	20
O=S(=O)(c1ccc(NCc2ccc(F)cc2)nc1)N1CCCC1	12
Nc1ccc(/C=C/C(=O)c2ccco2)cc1	3
CCOC(=O)c1c(C)[nH]c(C(=O)COC(=O)C(C)Oc2ccc(Cl)cc2Cl)c1C (centres undefined)	13
COc1cccc(/C=N/NC(=S)Nc2cccc(C(=O)O)c2)c1O	10
CNC(=O)/C(C#N)=C/c1cn(CC(=O)NCc2ccco2)c2ccccc12	9
COc1ccc(C2CC(c3ccccc3)=NN2C(=O)COC(=O)c2ccc(Cl)nc2)cc1 (centres undefined)	19
COC(=O)c1cc(NC(=O)c2ccc([N+](=O)[O-])cc2)c(=O)oc1C	1
ONc1cccnc1-n1nc(C(F)(F)F)cc1C(F)(F)F	2
Cn1cccc1-c1nc2ccccc2n1C	23
Cc1cccc(C)c1NC(=O)CN(C)CC(=O)Nc1ccc(F)c(Cl)c1	4
Nc1nc(NCC2CCCO2)nc(NCC2CCCO2)c1[N+](=O)[O-] (centres undefined)	9
COC(=O)c1ccc(C23CC4(C2)[C@H](CN(C)[C@@H]4c2ccccc2)C3c2ccc(C(F)(F)F)cc2)cc1 (some centres undefined)	11
COc1ccc(/C=C/C(=O)NCCc2ccc(S(N)(=O)=O)cc2)cc1	18
O=C(Nc1ccc(N2CCOCC2)nc1)c1ccc(C(F)(F)F)cc1	11
COc1ccc(-n2c(SCC(=O)NNC(=O)c3ccc(C)cc3)nnc2-c2ccncc2)cc1	13
CCCCNC(=O)C1CCC(CNS(=O)(=O)c2ccc(NC(C)=O)cc2)CC1 (centres undefined)	20
O=C(N/N=C/c1ccc([N+](=O)[O-])cc1)c1[nH]ncc1Br	4
CSc1ccc(S(=O)(=O)Nc2ccc3c(c2)NC(=O)CC3)cc1	11
COC(=O)c1cnc(Oc2ccc(NC(=O)NC(=O)c3ccccc3Cl)cc2)cc1C(F)(F)F	18
CCC(=Nc1ccccc1O)C1=C(O)CC(c2ccccc2)CC1=O (centres undefined)	29
CN(Cc1cccc(Cl)c1Cl)C(=O)c1ccc(NC(=O)CC#N)cc1	22
COCCn1c(Cc2ccccc2)nnc1SCc1ccc([N+](=O)[O-])cc1	6
C1=Cc2ccccc2Nc2ccccc21	16
CN(Cc1c(C(=O)N(C)Cc2ccccc2)nc2ccccn12)CC1Cc2ccccc2O1 (centres undefined)	-3

(more compounds)
SMILES	Calb biofilm kill
CCOc1ccc(S(=O)(=O)NCCC(=O)N2CCN(c3ccc(OC)cc3)CC2)cc1	11
O=c1[nH]c(=S)[nH]c2sccc12	12
O=C(CCCC1=NS(=O)(=O)c2ccccc2N1)N1CCN(c2ccc(Cl)cc2)CC1	9
Cc1cc(C)n(-c2ccc(S(=O)(=O)N3CCCC3)cc2[N+](=O)[O-])n1	3
Fc1ccc(CO/N=C2\CCCc3nonc32)cc1	10
Cn1c(=O)cc(OCCCC(=O)NCc2ccc(F)cc2Cl)c2ccccc21	16
COc1ccc(OC)c(NC(=O)CC2SC(=N)N(c3ccccc3)C2=O)c1 (centres undefined)	18
O=C(OC1CCOC1=O)c1ccc(Cl)c(S(=O)(=O)N2CCCCC2)c1 (centres undefined)	13
C=CCc1cccc(/C=N/NC(=O)CCCNc2ccc(C)cc2)c1O	-2
O=C(OCCC1Oc2cccnc2NC1=O)c1ccc([N+](=O)[O-])cc1 (centres undefined)	6
O=S(=O)(Nc1nc2ccccc2nc1N1CCc2ccccc2C1)c1ccc(Br)cc1	1
C#C[C@]1(O)CC[C@H]2[C@@H]3CCC4=C(CCC(=O)C4)[C@H]3CC[C@@]21C	7
O=C(/C=C\c1ccco1)c1ccc(NC(=O)c2ccco2)cc1	16
COC(=O)c1sccc1NC(=O)c1c(C)c(-c2cccc(Cl)c2)nc2ccccc12	15
COc1ccc(C(=O)Nc2ccc(N3CCC(C)CC3)cc2)cc1Br	4
CCCCCCCC(=O)NNC(=O)c1c(O)c2ccccc2n(CC)c1=O	9
CCn1ncc([N+](=O)[O-])c1C(=O)Nc1ccc(C(=O)N2CCCCC2)cc1	14
COc1cnn(-c2ccccc2)c(=O)c1OC	26
Cn1cc([N+](=O)[O-])c(C(=O)N/N=C\c2c[nH]c3ccccc23)n1	-20
Cn1c(=O)n(C)c2cc(NS(=O)(=O)c3ccc(Br)s3)ccc21	15
CCc1nnc(NS(=O)(=O)c2ccc(NC(=S)NC(=O)c3ccc(OC)c(OC)c3)cc2)s1	16
CCOC(=O)c1csc(NC(=O)c2ccc(N3C(=O)CCC3=O)cc2)n1	15
C/C(=N\N=C(N)N)c1cccc(Cl)c1	13
CCN(Cc1ccccc1)C(=O)C1CCN(Cc2sccc2C)CC1	9
O=C(O)c1cccc(Nc2nc(Nc3ccccc3)nc(N3CCCC3)n2)c1	20

Next part.
SMILES	Calb biofilm kill
CC(C)Cn1cc(C(=O)N2CCC(C)CC2)c2c3ccccc3n(C)c2c1=O	7
CC(C)(C)c1cc(OC(=O)c2ccccc2F)ccc1O	19
COc1ccc(N(CC(=O)Nc2c(C)n(C)n(-c3ccccc3)c2=O)S(=O)(=O)c2ccc(F)cc2)cc1	9
CC(C)CNC(=O)NC1(C(F)(F)F)Oc2ccccc2O1	18
O=C(Nc1ccc(Cl)c(Cl)c1)Nc1nnc(-c2ccncc2)s1	20
CCN(CC)c1ccc(/C=N/NS(=O)(=O)c2ccc(CNC(C)=O)cc2)cc1	22
O=c1c(OC2OC(CO)C(O)C(O)C2O)c(-c2ccc(O)c(O)c2)oc2cc(O)cc(O)c12 (centres undefined)	17
Cc1cc(C(=O)Nc2ccc(N3CCCC3)c(Cl)c2)ccc1[N+](=O)[O-]	15
CN(C)S(=O)(=O)c1ccc(C(=O)NCC(=O)N/N=C/c2ccco2)cc1	12
O=C(N/N=C/c1ccc(N2CCOCC2)cc1)c1ccc(O)cc1	8
O=C(O)C1=C[C@H](c2ccc(Br)cc2)C[C@H](OCCCCO)O1	12
COC(=O)CN(c1ccc(C)cc1)S(=O)(=O)c1ccc(F)cc1	25
CCCCN(CC)C(=O)Cc1ccc(Br)cc1	15
COCCNc1nc(N)c([N+](=O)[O-])c(NCC2CCCO2)n1 (centres undefined)	9
COc1ccc(NC(=O)N2CCCC(CCC(=O)N(C)CCc3ccccn3)C2)cc1 (centres undefined)	13
COC(=O)c1cccc(C23CC4(C2)[C@H](CN(Cc2ccc(C(F)(F)F)cc2)[C@@H]4c2ccccc2)C3c2ccc(Cl)nc2)c1 (some centres undefined)	15
CCOC(=O)N1CCN(C(=O)c2ccc(-n3c(=S)[nH]c4ccccc4c3=O)cc2)CC1	15
Cc1nn(Cc2ccccc2)c2c1C(c1ccccc1)C(C#N)=C(N)O2 (centres undefined)	11
O=[N+]([O-])c1nn(-c2ccc(Cl)cc2)n(O)c1=NCc1ccccc1Cl	14
O=C(CC1C(=O)NCCN1Cc1ccc(-c2ccccc2)cc1)NCC1CCOCC1 (centres undefined)	24
COc1ccc(CC(=O)NNC(=O)COc2ccc(Br)cc2C)cc1OC	9
Cc1ccc(S(=O)(=O)N2CCCC(C(=O)NCc3ccco3)C2)cc1Cl (centres undefined)	14
CC(CCc1ccccc1)NC(=O)c1ccco1 (centres undefined)	5
O=C(N/N=C/C=C/c1ccc([N+](=O)[O-])cc1)C1COc2ccccc2O1 (centres undefined)	9

Sorted by length of the SMILES (low to high): some entries from above
SMILES	Calb biofilm kill
CC(C)(C)c1cc(OC(=O)c2ccccc2F)ccc1O	19
COCCNc1nc(N)c([N+](=O)[O-])c(NCC2CCCO2)n1 (centres undefined)	9
O=C(O)C1=C[C@H](c2ccc(Br)cc2)C[C@H](OCCCCO)O1	12
CN(C)S(=O)(=O)c1ccc(C(=O)NCC(=O)N/N=C/c2ccco2)cc1	12
O=c1c(OC2OC(CO)C(O)C(O)C2O)c(-c2ccc(O)c(O)c2)oc2cc(O)cc(O)c12 (centres undefined)	17

Of the compounds above, 6 have a CF3 group:
SMILES	Calb biofilm kill
ONc1cccnc1-n1nc(C(F)(F)F)cc1C(F)(F)F	2
COC(=O)c1ccc(C23CC4(C2)[C@H](CN(C)[C@@H]4c2ccccc2)C3c2ccc(C(F)(F)F)cc2)cc1 (some centres undefined)	11
O=C(Nc1ccc(N2CCOCC2)nc1)c1ccc(C(F)(F)F)cc1	11
COC(=O)c1cnc(Oc2ccc(NC(=O)NC(=O)c3ccccc3Cl)cc2)cc1C(F)(F)F	18
CC(C)CNC(=O)NC1(C(F)(F)F)Oc2ccccc2O1	18
COC(=O)c1cccc(C23CC4(C2)[C@H](CN(Cc2ccc(C(F)(F)F)cc2)[C@@H]4c2ccccc2)C3c2ccc(Cl)nc2)c1 (some centres undefined)	15

Assay outcomes as filed in PubChem BioAssay.
